Assay outcomes (PubChem BioAssay)
GIV Gai3 FP = blocks GIV peptide binding to rat Galpha-i3. hit rate 0.42% among 210,000. Galpha-i3/FITC-GIV peptide fluorescence polarization, 90 min; hits give low values; scaled: aluminum fluoride 0%, vehicle 100%. AID 1224905. P08753. percent of control (FP), % (concentration not given with the values);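 active = replicate mean at 85% of control or lower, very high polarization wells dropped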;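 note: wells of about 15 µL received 100 nL stock; the first replicate is given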
Target sequence (P08753 whole entry, looked up): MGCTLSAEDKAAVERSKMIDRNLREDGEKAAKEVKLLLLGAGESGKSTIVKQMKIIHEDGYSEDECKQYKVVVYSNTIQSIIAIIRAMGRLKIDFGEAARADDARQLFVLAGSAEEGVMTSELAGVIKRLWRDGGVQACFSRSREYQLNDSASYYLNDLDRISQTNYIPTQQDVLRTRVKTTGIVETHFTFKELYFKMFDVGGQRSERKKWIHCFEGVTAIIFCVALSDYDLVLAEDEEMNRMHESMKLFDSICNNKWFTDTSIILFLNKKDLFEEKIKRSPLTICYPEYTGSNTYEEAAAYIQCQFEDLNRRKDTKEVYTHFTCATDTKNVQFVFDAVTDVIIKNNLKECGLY
* marks the source's active call; other numbers are inactive results. The list is partial. The share of hits here may be higher or lower than overall.

SMILES | GIV Gai3 FP
CCOc1cc(C2C(C#N)=C(N)Oc3n[nH]c(-c4ccc5c(c4)OCO5)c32)ccc1OC(=O)N1CCOCC1 (centres undefined) | 101
O=C(CSc1nc2ccccc2c(=O)n1CC1CCCO1)N1CCCCCC1 (centres undefined) | 103
Cc1cc(Cl)cc2c1N=C(c1ccc(Br)cc1)NN=C2c1ccccc1 | 116
Cc1ccccc1COc1cccc(C2CC(=O)Nc3c2c(C)nn3-c2ccc3nncn3n2)c1 (centres undefined) | 101
CCN1CCN(CC2CCN(S(=O)(=O)Cc3ccc(C)c(C)c3)CC2)CC1 | 100
CCCCC(=O)Nc1nn2c(C3CCCCC3)nnc2s1 | 103
O=S1(=O)N=CN(c2ccc(F)c(Cl)c2)c2ncccc21 | 100
O=S(=O)(c1cccnc1)N1CCn2cccc2C1c1ccccc1F (centres undefined) | 111
CCOCCCNC(=O)C1CCCN(c2nccnc2Oc2ccc(C)cc2)C1 (centres undefined) | 101
Cc1nc(-c2ccccc2)sc1C(=O)N1CCC(CC(=O)NCCN2CCOCC2)CC1 | 97
Cc1nn(-c2nc3ccccc3o2)c2c1C(c1ccc(Br)cc1)CC(=O)N2 (centres undefined) | 107
CC1CCCCC1NC(=O)c1cc2ccccc2o1 (centres undefined) | 126
C=CCn1c(SCc2c(C)noc2C)nc2scc(-c3ccc(F)cc3)c2c1=O | 97
COc1ccc(C2=NN(C(C)=O)C(c3ccccc3OCc3ccccc3)O2)cc1 (centres undefined) | 111
CCOc1ccc(NC(=O)Cn2c3ccccc3n3c(=O)cc(-c4cccc(Cl)c4)nc23)cc1 | 103
O=C(NC1CCCC1)c1cccc(Oc2ccnc(-c3ccc(F)cc3)n2)c1 | 102
O=C(c1ccc(Cl)cc1)N1N=C(C(F)(F)F)CC1(O)c1ccc(F)cc1 (centres undefined) | 100
COc1cc(-c2ccno2)ccc1S(=O)(=O)N1CCc2ccccc2C1 | 108
O=C(NCc1ccccc1)c1cc(-c2ccc(Cl)cc2)nc2n[nH]c(-c3ccccc3)c12 | 99
CCOc1ccc(Nc2nc(N3CCOCC3)nc(N3CCOCC3)n2)cc1 | 117
COc1ccc2nc(N3CCCCC3)c(/C=C3/C(=O)NC(=S)N3C(C)=O)cc2c1 | 98
COc1ccc(-c2[nH]nc3c2C(c2cc(OC)c(OC(=O)c4ccco4)c(OC)c2)C(C#N)=C(N)O3)cc1 (centres undefined) | 110
C1CN(P2(N3CCOCC3)=NP(N3CCOCC3)(N3CCOCC3)=NP(N3CCOCC3)(N3CCOCC3)=N2)CCO1 | 119
C=CCSc1nnc2n(-c3ccccc3)c(=O)c3c4c(sc3n12)CCCC4 | 115
N#Cc1c(-c2cccc(Cl)c2Cl)c(C#N)c2nc3ccccc3n2c1N | 104

Continuation.
SMILES | GIV Gai3 FP
COc1ccc(N2C(=O)/C(=C/c3ccc(OC)c(OC)c3)N=C2c2ccc(Cl)cc2)cc1 | 111
Cn1c(=O)[nH]c(=O)c2c3c(sc21)COC(C)(C)C3 | 109
COc1cc(NC(=O)c2ccc3c(=O)n(Cc4cccc(Br)c4)c(=S)[nH]c3c2)cc(OC)c1OC | 111
Cc1sc2cc(C(=O)NCCN3CCN(C)CC3)[nH]c2c1CN1CCCCC1 | 104
Cn1c(=O)c(=O)n(CC(=O)N2CCc3ccccc32)c2ccccc21 | 109
CCOc1ccc(N2C(=O)C3C(c4ccc(F)cc4)OC4(C(=O)c5ccccc5C4=O)C3C2=O)cc1 (centres undefined) | 103
COc1ccc(-c2cnn3c(SCC(=O)N4CCCC4)cc(C)nc23)cc1OC | 101
COc1ccc(Br)cc1C1=N/C(=C\C(Cl)=C\c2ccccc2)C(=O)O1 | 115
CC(=O)Oc1ccc(C2Nc3ccc(C(C)=O)cc3C3C=CCC32)cc1 (centres undefined) | 108
CC(C)c1cc(C2CCCN2S(=O)(=O)c2ccc(Br)s2)on1 (centres undefined) | 104
Cn1c(SCC(=O)Nc2ccc3nc(SCC(=O)NC4CC4)sc3c2)nnc1-c1ccccc1 | 106
O=C(NCc1ccc(Br)cc1)c1cncc(-c2ccc(F)cc2)c1 | 100
CNc1onc(-c2ccc(F)cc2)c1C(=O)OC | 101
CCN1CCN(CCCNC(=O)c2ccc(Cn3c(=S)[nH]c4ccc(Br)cc4c3=O)cc2)CC1 | 116
COc1cc(CN2CCCC2c2c(C)noc2C)ccc1O (centres undefined) | 100
O=C(NCC1CCCO1)c1nc(-c2ccc(S(=O)(=O)N3CCOCC3)cc2)no1 (centres undefined) | 103
NC(=O)c1oc2ccc(Cl)cc2c1N | 100
Cc1nc(-c2cc(S(=O)(=O)NCCC(C)C)c(C)s2)sc1C | 107
CN1CCN(C(=O)c2ccc(CN3CCc4c(c(C(=O)N5CCCC5)nn4C)C3)cc2)CC1 | 103
CCOCCCNC(=O)c1ccc2nc3[nH]c4ccccc4c3nc2c1 | 106
COc1ccc(-c2noc(CSc3nnc(-c4ccc5c(c4)OCCCO5)n3C)n2)cc1 | 101
CN1C(=O)NC2(C)N(C)C(=O)NC12C (centres undefined) | 111
COc1ccc(CCNC(=O)c2ccc3c(=O)n(Cc4ccc5c(c4)OCO5)c(=S)[nH]c3c2)cc1OC | 107
CN(C)C(=O)c1cc2c(s1)CCC(C(=O)NCCN1CCOCC1)C2 (centres undefined) | 101
COc1ccc(/C=C2\SC(=S)N(CCC(=O)Nc3ccc(O)c(C(=O)O)c3)C2=O)cc1OC | 111

More entries:
SMILES | GIV Gai3 FP
O=C(O)c1ccc(N2C(=O)/C(=C/c3ccc(Cl)cc3)C=C2c2ccccc2)cc1 | 121
NS(=O)(=O)c1ccc(CCNC(=O)c2ccc3nc4ccc(Cl)cc4c(=O)n3c2)cc1 | 99
COc1c(Cl)cc(Cl)cc1C1C(C#N)=C(N)Oc2n[nH]c(-c3cccs3)c21 (centres undefined) | 106
Cc1ccc(Nc2ncnc3c2cnn3C)cc1C | 100
Cc1cc(C)cc(N2C(=O)C(N3C(=O)c4ccccc4C3=O)C2c2ccc(F)cc2)c1 (centres undefined) | 115
COc1ccc(OC)c(S(=O)(=O)N2CCC(n3cnc4ccc(Cl)cc4c3=O)CC2)c1 | 104
CCn1nc(CN(C)C)c2c1CCNC2 | 104
CCC1CCCCN1S(=O)(=O)c1cc(-c2nc(C)c(C)s2)sc1C (centres undefined) | 105
C=CCNC(=O)C1CCN(Cc2c[nH]c3ccc(OC)cc23)CC1 | 103
COc1ccc(-n2c(=S)[nH]c3cc(C(=O)Nc4cc(OC)c(OC)c(OC)c4)ccc3c2=O)cc1 | 113
COc1ccccc1NC(=O)Nc1nc2c(s1)CN(S(=O)(=O)c1ccccc1)CC2 | 102
Cc1onc(-c2ccc(Br)cc2)c1C(=O)N1CCC(N2CCCCC2)CC1 | 112
CCOc1ccccc1NC(=O)c1c(NC(=O)c2ccccc2Cl)sc2c1CCCCC2 | 105
O=C(Nc1ccc2c(c1)CCC2)c1cc(N2CCOCC2)nc2ccccc12 | 110
CCCS(=O)(=O)c1nc2ccc(NS(C)(=O)=O)cc2s1 | 111
O=S(=O)(c1ccc(-c2ccno2)s1)N1CCCCC1 | 98
CCS(=O)(=O)N1CCCN(C(=O)C2CCCC2)CC1 | 103
O=C1c2ccccc2-c2onc3c(NCc4ccccc4)cc(Nc4ccccc4)c1c23 | 126
CCCc1nc2sc3c(NCCC(C)C)ncnc3c2c2c1COC(C)(C)C2 | 103
CC(=O)[C@@H]1[C@@H](c2ccc(F)cc2)C(C#N)(C#N)[C@H]2C=Cc3ccccc3N12 | 122
CS(=O)(=O)N1CCC(n2cnc3ccc(F)cc3c2=O)CC1 | 105
Cc1ccc(NC(=O)/C(=C/c2cccc([N+](=O)[O-])c2)NC(=O)c2ccccc2Br)cc1 | 124
CCCCCCCCCCOc1ccc(OC(=O)c2ccc(OC(C)CCCC)cc2)cc1 (centres undefined) | 129
O=C(NC1CCCCC1)c1nnc(-c2ccc(S(=O)(=O)N3CCCC3)cc2)o1 | 105
CCOC(=O)c1[nH]c(C)c(CCC(=O)N2CCCC(C(=O)NCCCOC(C)C)C2)c1C (centres undefined) | 109

The last 5 compounds of the part above open the next one:
SMILES | GIV Gai3 FP
CS(=O)(=O)N1CCC(n2cnc3ccc(F)cc3c2=O)CC1 | 105
Cc1ccc(NC(=O)/C(=C/c2cccc([N+](=O)[O-])c2)NC(=O)c2ccccc2Br)cc1 | 124
CCCCCCCCCCOc1ccc(OC(=O)c2ccc(OC(C)CCCC)cc2)cc1 (centres undefined) | 129
O=C(NC1CCCCC1)c1nnc(-c2ccc(S(=O)(=O)N3CCCC3)cc2)o1 | 105
CCOC(=O)c1[nH]c(C)c(CCC(=O)N2CCCC(C(=O)NCCCOC(C)C)C2)c1C (centres undefined) | 109
CCON1C(=O)CN(C(=O)OC)C1c1ccc(Cl)cc1Cl (centres undefined) | 111
CC1=C(C(=O)Nc2ccccc2)C(c2ccccc2)C(C#N)=C(SCC(=O)Nc2ccc(Oc3ccccc3)cc2)N1 (centres undefined) | 108
Cc1cc(N2CCCC2)nc2ccc(NC(=O)c3ccc4c(c3)OCO4)cc12 | 102
Cc1nn(-c2ccccc2)c2sc(C(=O)NCCCN(C)c3ccccc3)cc12 | 96
CCCCCCCCCCNS(=O)(=O)c1ccc2c(c1)Cc1cc(S(=O)(=O)NCCCCCCCCCC)ccc1-2 | 113
CCOC(=O)c1c(C)[nH]c(CCC(=O)NCc2cccnc2)c1C | 105
COC(=O)c1ccc2c(c1)N(Cc1ccc(C)cc1)C(=O)CS2 | 94
O=C(NCc1ccccc1Cl)c1ccc(-c2cnc(NCc3ccccc3)nc2)cc1 | 100
CC1=NN(c2ccccc2)C(=O)C1C(c1ccc2c(c1)OCO2)C1C(=O)N(c2ccccc2)N=C1C (centres undefined) | 72*
O=S(=O)(c1cccc(F)c1)N1CCN(c2ncnc3c2nnn3-c2cccc(F)c2)CC1 | 101
O=C(C(=O)N1CCCc2ccccc21)N1CCCc2ccccc21 | 113
Cc1cccc(C(=O)Nc2ccc(N3CCN(c4ccccc4Cl)CC3)c(C(=O)O)c2)c1 | 106
CC1(C)CC(=O)C2=C(C1)Nc1[nH]c(=O)[nH]c(=O)c1C2c1ccccc1 (centres undefined) | 113
CCN(CC)CCCNC(=O)c1sc2ncnc(N3CCN(c4ccccc4OC)CC3)c2c1C | 101
CC1CCN(c2cc(-n3ccnc3)ncn2)CC1 | 109
Cc1ccc(-c2nc(CNC(=O)CN3C(=O)c4ccccc4C3=O)no2)cc1 | 100
CN1CCN(c2nc(-c3ccc([N+](=O)[O-])cc3)nc3ccccc23)CC1 | 107
COC(=O)C1=C(C(=O)OC)SC2(S1)C(C(=O)OC)=C(C(=O)OC)SC1=C2c2ccc(C)cc2N(C(=O)Cc2ccccc2)C1(C)C | 108
Cc1c(C(=O)NC2CCCCC2)sc2ncnc(N3CCCCC3)c12 | 106
Cc1cccc(-c2noc(Cc3nc(-c4ccccc4)cs3)n2)c1 | 106
COc1ccc2c(c1)C=CC1(O2)N(C)c2ccccc2C1(C)C (centres undefined) | 106
COc1ccc(C(=O)Nc2ccc(-c3ccc4ccccc4n3)cc2)cc1OC | 102
CN(C)c1nc2nonc2nc1N | 102
O=C(C1CCN(c2ccc3cc(S(=O)(=O)N4CCCCC4)ccc3n2)CC1)N1CCCC1 | 106
Cc1cc(N2CCOCC2)nc(N2CCN(C(=O)C3CCCCC3)CC2)n1 | 103

Shown with each value named: entries from further up
COc1ccc(C(=O)Nc2ccc(-c3ccc4ccccc4n3)cc2)cc1OC
- GIV Gai3 FP = 102
CN(C)c1nc2nonc2nc1N
- GIV Gai3 FP = 102
O=C(C1CCN(c2ccc3cc(S(=O)(=O)N4CCCCC4)ccc3n2)CC1)N1CCCC1
- GIV Gai3 FP = 106
Cc1cc(N2CCOCC2)nc(N2CCN(C(=O)C3CCCCC3)CC2)n1
- GIV Gai3 FP = 103

The list continues.
SMILES | GIV Gai3 FP
CC(=O)c1ccc2c3c(onc13)-c1ccccc1C2=O | 107
CC1=CCC2C(=O)N(c3cccc(C(=O)OCC(=O)c4ccc(Br)cc4)c3)C(=O)C2C1 (centres undefined) | 122
CCOC(=O)C(=O)N1c2ccc(C)cc2C(C)(c2ccccc2)CC1(C)C (centres undefined) | 109
COc1ccc(NC(=O)CSc2nc3[nH]ncc3c(=O)n2-c2cccc(C(F)(F)F)c2)cc1OC | 107
COc1ccc(C2=C/C(=C3\c4ccccc4-c4ncccc43)C(=O)O2)cc1 | 111
CN(C)c1ncncc1N1CCC(C(=O)N2CCC(N3CCCCC3)CC2)CC1 | 104
Cc1cc(C2CCCN2C(=O)c2cc(-c3ccccc3)on2)on1 (centres undefined) | 103
Cc1ccc2c(c1)-c1ccccc1S(=O)(=O)N2S(=O)(=O)c1ccccc1 | 110
Cn1nccc1-c1csc(S(=O)(=O)N2CCCCC2)c1 | 103
O=C(NCc1ccccn1)c1nc(-c2ccc(N3CCCC3)cc2)no1 | 103
CC(C)(C)c1cc(CCCOC(=O)CSCC(=O)OCCCc2cc(C(C)(C)C)c(O)c(C(C)(C)C)c2)cc(C(C)(C)C)c1O | 107
CCCCn1c(CNC(=O)c2ccco2)nnc1SCC(=O)Nc1sc2c(c1C(=O)OCC)CCCCC2 | 111
Fc1ccc(C2Nc3cccc4cccc(c34)N2)cc1 | 111
CS(=O)(=O)N1CCCC(C(=O)NCCCN2CCC(Cc3ccccc3)CC2)C1 (centres undefined) | 106
CCCCCOc1ccc(/C=N/NC(=O)c2nnn(-c3nonc3N)c2CN2CCCCCC2)cc1 | 106
C=CCOC(=O)C1=C(C)NC(=O)NC1c1cn(-c2ccccc2)nc1-c1ccc(C)cc1 (centres undefined) | 113
Cc1cc(C)nc(NC(=O)c2cccc(S(=O)(=O)N3CCOCC3)c2)n1 | 111
CC(C)c1ccc(NC(=O)C2CCN(Cc3noc(-c4ccc(F)cc4)n3)CC2)cc1 | 104
Cc1nc(N2CCCCC2)c2oc3ccccc3c2n1 | 107
